PrP UTR inh – inhibition of PrP 5' UTR reporter expression. cell-based PrP 5' UTR mRNA reporter, plate reader. inhibition, % (no concentration beside the values). 340,000 compounds, 0.35% hits;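 active = every replicate at 50% or more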;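 note: 0 = median of the neutral control wells; tested in H4 reporter cells; numbers are from one replicate; inactives centre near -14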
Bead autofluor – counter-screen for toxin protease inhibitors: compound fluorescence | compound autofluorescence counterscreen, microsphere flow cytometry; active compounds read high | fluorescence intensity (test concentration not listed) | 360,000 compounds, 3.1% hits | AID 624483;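 active = at least 3 SD above the mean of all compounds, about 16000 in these data; inconclusive = too few beads counted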;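 note: 100 nL of 1 mM stock went into each well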
RN4220 kill – kills Staphylococcus aureus RN4220; 330,000 compounds, 0.33% hits; inhibition, % (no concentration beside the values); S. aureus RN4220 growth, OD600, 16 h;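 active = z-score of -3 or lower and OD600 up to 0.18 on both plates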;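 note: plate controls were untreated cells for no effect and reference antibiotic for full effect; stock transfer was 100 nL into about 80 µL; one replicate is shown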
Mtb hypoxia rep – reduces hypoxia-regulated biosensor signal in M. tuberculosis. 300,000 compounds, 0.1% hits. M. tuberculosis hypoxia-regulated fluorescent reporter, fluorescence. fluorescence inhibition, % (no concentration beside the values). AID 1159583;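 active = 35 to 45% if threefold the growth effect, above 45% if 1.5-fold the growth effect; inactive = the rest, general growth blockers included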;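 note: wells of about 50 µL received 100 nL stock; 0% = vehicle wells and 100% = reference inhibitor wells; whole bacteria with a GFP reporter of the hypoxia response; strong numbers were not always called active; many hits fall short of the cut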
ugtP null kill – kills S. aureus RN4220 lacking UgtP | S. aureus RN4220 ugtP deletion, OD600 growth, 16 h; some inactives read as strong as hits | growth inhibition, % (test concentration not listed) | 330,000 compounds, 0.54% hits | AID 1259309;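 active = z-score under -3 and OD600 up to 0.15 on both plates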;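 note: plate controls were untreated wells for no effect and antibiotic for full effect; wells of about 80 µL received 100 nL stock; the first replicate is given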
BJeLR viability – BJeLR cell viability loss; inhibition, % (no concentration beside the values); BJeLR (HRASV12) viability, CellTiter-Glo ATP luminescence, 48 h; reference of the scale not given here; 300,000 compounds, 0.17% hits;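 active = replicate mean above 50%; inconclusive = above 50% but judged a plate artefact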;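 note: 50 nL library stock added to about 25 µL; numbers are from one replicate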
Mtb hypoxia rep growth – further read-out of Mtb hypoxia rep, marked with its call; growth inhibition, %; measured here: M. tuberculosis growth (absorbance);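 0% = vehicle and 100% = reference antibiotic; read after six days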
The depositor's hits bear a star; ? = inconclusive; nt = not tested or not shown; & = joins results of further samples.

Below each SMILES: PrP UTR inh | Bead autofluor | RN4220 kill | Mtb hypoxia rep | Mtb hypoxia rep growth | ugtP null kill | BJeLR viability
COc1ccccc1CN=C1NC(=O)C(CC(=O)Nc2ccc(OC)c(OC)c2)S1 (configuration not stated)
  -2 | 5961 | 1.2 | -2 | 8 | -1 | 4
COc1cc(CNCCCN2CCOCC2)cc(Br)c1OCc1ccc(Cl)cc1
  -17 | 4487 | -2.0 | 8 | 36 | -21 | 8
O=C1CCC(N2C(=O)c3ccccc3C2=O)C(=O)N1 (configuration not stated)
  -1 | 4347 | 10&6.8 | 7&7 | 2&-4 | 4&-5 | 9
COc1cccc(CN2CCN(Cc3cccc(Br)c3)CC2)c1OC
  -18 | 3733 | 4.9 | 9 | 2 | 5 | -3
Cn1c(=O)c(C(=O)COC(=O)c2cc(C(F)(F)F)nc3ccccc23)c(N)n(Cc2ccccc2)c1=O
  nt | nt | -5.9 | 0 | 6 | 0 | 4
O=C(CCl)Nc1ccc2c(c1)OCO2
  -19 | 4392 | 4.4 | 21 | 26 | -5 | -2
Cc1cc(C(=O)NNC(=O)c2cccc(S(=O)(=O)N3CCOCC3)c2)c2ccccc2n1
  -24 | 4107 | 17 | 13 | 6 | 4 | -2
CCC(=NCc1ccccc1)c1c(C(F)(F)F)[nH]n(-c2nc3ccccc3s2)c1=O
  -2 | 16663* | 12 | 12 | 6 | -7 | -3
COc1cc(/C=C(\C#N)c2ccccn2)cc(OC)c1O
  -26 | 3395 | 13 | 14 | 7 | 4 | 5
CCc1ccc(OCc2nnc(SCCN3CCOCC3)n2C)cc1
  -17 | 3851 | 6.4 | 8 | 13 | 4 | -10
COc1ccc(/C=C(/NC(=O)c2cccs2)C(=O)NCc2ccco2)cc1OC
  -7 | 4710 | 6.9 | -5 | 3 | 8 | 0
COC(=O)c1cccc(C23CC4(C2)C(CN(Cc2cccnc2)C4c2ccccc2)C3c2ccc(C(F)(F)F)cc2)c1 (configuration not stated)
  nt | nt | 1.3 | -4 | 13 | -13 | nt
Cc1nc(SCC(=O)Nc2ccc3c(c2)OCCO3)c2oc3ccccc3c2n1
  -5 | 20676* | 4.5 | 6 | 6 | 90* | -10
C=C(C)COc1ccc(-c2ncncc2Oc2ccc(OC)cc2)c(O)c1
  -11 | 2985 | -2.4 | nt | nt | 44 | -6
O=S(=O)(/N=C(\c1ccccc1F)N1CCCCC1)c1ccccc1
  -30 | 11148 | nt | nt | nt | nt | 1
O=C(NC1CCCCC1)N1CCN(Cc2ccco2)CC1
  -14 | 2369 | -2.2 | 5 | 14 | 3 | 5
Cc1ccc2c(c1)C1CN(C)CCC1N2C(=S)NC(=O)c1ccc(Cl)cc1Cl (configuration not stated)
  -2 | 4782 | -0.1 | 4 | -6 | -5 | -3
CN1CCN2c3ncccc3Cc3ccccc3C2C1 (configuration not stated)
  -7 | 6155 | 2.5&7.4 | 0&-2 | 4&-1 | -7&-1 | -2
COc1ccccc1C(=O)NNC(=O)c1ccccc1
  -60 | 3269 | 2.6 | 2 | -4 | 10 | -5
CCOc1ccc(Nc2ccc(N)c(S(=O)(=O)O)c2)cc1
  -22 | 4077 | 14 | 21 | 11 | -8 | nt
CSc1cccc(NC(N)=O)c1
  nt | 3998 | 3.5 | 13 | 3 | 8 | 1
O=C([C@@H]1CCCN1C(=O)c1cccs1)N1CCN(S(=O)(=O)c2ccccc2F)CC1
  -18 | 4100 | 1.9 | 8 | -3 | 0 | nt
Cc1cc(=O)oc2cc(OCC(O)CN3CCN(c4ccc(F)cc4)CC3)ccc12 (configuration not stated)
  -5 | 9551 | 2.4 | -3 | 4 | 8 | -7
Cc1cc(Cl)ccc1Oc1ccc(C(N)=O)cc1[N+](=O)[O-]
  -17 | 2263 | 4.7 | 17 | 4 | -1 | -2
Cc1ccc(NC(=O)CN2CCN(c3ccccn3)CC2)c(Cl)c1
  -16 | 2806 | -1.3 | -3 | 9 | -5 | 9
Cc1ccc(C(C)(C)NC(=O)C2CCC(=O)N(C3CCCCCC3)C2)cc1 (configuration not stated)
  -53 | 6089 | 0.3 | -3 | 12 | -1 | -2
C=Cc1ccc(CN2CCCN(Cc3ccc(F)cc3)S2(=O)=O)cc1
  -4 | 4100 | 2.2 | -8 | -4 | -1 | 4
COc1ccc(OC)c(-n2c(O)cnc2Nc2nc(C)cc(C)n2)c1
  6 | 4861 | 2.9 | nt | nt | 9 | 4
CCOc1ccc(NC(=O)OCCN2CCN(CCc3ccccc3)C(C)C2)cc1 (configuration not stated)
  -13 | 3185 | 4.6 | 13 | 15 | 8 | nt
Cc1nc2sc(C(c3ccc(Br)cc3)N3CC(C)OC(C)C3)c(O)n2n1 (configuration not stated)
  -5 | 3334 | 9.2 | nt | nt | 10 | -4
CCCCc1nc2cc(C(=O)N3CCCCC3CC(=O)OCC)ccc2o1 (configuration not stated)
  -11 | 6918 | 0.9 | 9 | 5 | 0 | 1
CC(C(=O)NCc1ccco1)n1ccc2cc(S(=O)(=O)N3CCCC3)ccc21 (configuration not stated)
  -14 | 4890 | -1.4 | 3 | -2 | 0 | -1
COc1ccc(Cl)cc1NC(=O)CSc1nc(C)cc(C)n1
  2 | 2682 | 3.4 | -4 | 11 | 1 | -2
Cc1ccc(NC2=CC(=O)CC(C)(C)C2)cc1C
  -42 | 8751 | 4.5 | -8 | -8 | -10 | -1
O=C(NNC(=O)c1ccccc1Cl)c1ccc2c(=O)n3c(nc2c1)CCC3
  nt | 5409 | 9.0 | 11 | 3 | 5 | nt
NS(=O)(=O)c1ccc(CNC(=S)NC2CCCC2)cc1
  -53 | 4014 | 3.9 | 10 | 6 | 2 | 4
CCSc1nnc(NC(=O)CSc2nnc(-c3c[nH]c4ccccc34)n2CC)s1
  -27 | 6490 | -0.8 | -1 | 1 | 2 | 7
COc1ccc(C2C(C#N)=C(/N=C/N3CCN(C)CC3)OC3=C2C(=O)CC(C)(C)C3)cc1 (configuration not stated)
  -21 | 2433 | nt | nt | nt | nt | 10
O=C(O)COc1ccccc1/C=N/NC(=O)c1ccc2c(c1)OCCO2
  -3 | 6138 | nt | nt | nt | nt | 4
CC(=O)N(C)c1ccc(NC(=O)COc2ccc(Br)cc2C)cc1
  -19 | 2162 | -4.3 | 1 | 3 | -5 | -6
O=C(COC(=O)Cc1ccccc1[N+](=O)[O-])NC1CCCC1
  -2 | 2346 | 8.0 | -2 | -13 | -1 | -3
O=C(c1cc2ccccc2o1)N1CCN(c2ccccn2)CC1
  -8 | ? | -1.9 | -3 | 11 | -4 | -1
CC(C)NC(=O)c1ccccc1NC(=O)/C=C/c1cccc([N+](=O)[O-])c1
  -25 | 2553 | nt | nt | nt | nt | 9
CC12CCC(C(=O)NNc3ccc([N+](=O)[O-])cc3)(OC1=O)C2(C)C (configuration not stated)
  -21 | 5955 | 0.4 | 7 | 11 | 2 | 1
O=C(NC1CCCCC1)C(c1cccs1)N(C(=O)C(F)(F)F)c1ccccc1 (configuration not stated)
  -19 | 8290 | 6.2 | 1 | -1 | 0 | -2
O=C(CC1(O)C(=O)N(CCc2ccccc2)c2ccccc21)c1ccccn1 (configuration not stated)
  -28 | 4826 | 4.1 | -3 | 5 | -3 | 1
COc1ccc(-c2noc(N3CCC(C(=O)N(C)c4ccccc4)CC3)n2)cc1
  -12 | 4470 | 3.4 | -2 | 9 | 6 | -6
CCCCS(=O)CC(COc1ccc(Cl)cc1)OC(=O)c1ccccc1 (configuration not stated)
  -6 | 4158 | 2.4 | nt | nt | -5 | 10
COC(=O)c1cc(OC)c(OC)cc1NC(=O)c1ccc(C)cc1
  -9 | ? | 5.6 | -2 | 4 | -19 | -3
NC(=O)c1nsc(C(=O)N(Cc2ccco2)C(C(=O)NC2CCCC2)c2ccc(O)cc2)c1N (configuration not stated)
  -17 | 3723 | 0.3 | 1 | 11 | 16 | -2
COc1ccc(C(CNC(=O)Cc2ccccc2F)N2CCCCC2)cc1 (configuration not stated)
  -15 | 5317 | 4.6 | 5 | 1 | 0 | -5
COc1ccc(C2C(C#N)=C(SC)NC3=C2C(=O)CC(C)(C)C3)cc1 (configuration not stated)
  -31 | 9806 | 3.6 | 5 | 0 | 5 | 2
COc1ccccc1CNC(=O)CCCN1C(=O)COc2ccc(C)cc21
  -4 | 11784 | 5.4 | 3 | 9 | 1 | 7
O=C(Nc1cccc(Cl)c1Cl)C1CCN(C(=O)c2cccs2)CC1
  -27 | 3599 | 3.5 | 10 | 2 | -1 | 13
CCOc1ccccc1C1CC(=O)NC(SCC(=O)Nc2nccs2)=C1C#N (configuration not stated)
  -11 | 2841 | nt | nt | nt | nt | -2
Cc1ccc(-c2nnc(SCC(=O)NN=Cc3ccc(C)s3)n2-c2ccc(C)cc2)cc1
  nt | nt | -1.3 | -7 | -5 | -13 | nt
O=C1C2C3C=CC([C@@H]2C(=O)N1C1CC1)[C@H]1C(=O)N(C2CC2)C(=O)C31 (some centres not stated)
  -15 | 2945 | 2.2 | nt | nt | 6 | 4
O=C(/C=C/c1ccc(S(=O)(=O)N2CCOCC2)cc1)NCc1ccccc1
  -7 | 2526 | 5.4 | 15 | 2 | 7 | 9
N#Cc1ccc(C2=CC(=O)C[C@H](c3ccc(F)cc3)C2)cc1
  1 | 4074 | 22 | 0 | -10 | 11 | nt
Cc1ccc(-c2nnc(-c3ccc(Br)cc3)o2)o1
  -55 | 5804 | 2.3 | 8 | 8 | -6 | 3

The listing continues:
Below each SMILES: PrP UTR inh | Bead autofluor | RN4220 kill | Mtb hypoxia rep | Mtb hypoxia rep growth | ugtP null kill | BJeLR viability
CC(C)[C@H](NC(=O)N1CC(=O)Nc2ccccc21)C(=O)Nc1nccs1
  -12 | 4134 | -0.3 | 5 | 1 | 7 | 3
CCCCOC(=O)CCn1[nH]c(=O)c2ccccc2c1=O
  -12 | 22758* | 6.1 | 1 | 5 | 5 | -4
CCCC(=O)c1cc2c(cc1NC(=O)CC)OCCO2
  -16 | 2218 | 3.2 | 4 | 7 | 1 | -6
CN1CCN(c2ccc(NC(=O)c3ccc(C#N)cc3F)cc2Cl)CC1
  -9 | 4575 | nt | nt | nt | nt | -3
COc1ccc(C(C)NCCC(c2ccc(OC(C)C)cc2)c2ccccc2OC)cc1 (configuration not stated)
  4 | 3862 | -2.5 | -5 | 8 | -10 | 2
O=S(=O)(c1ccc(F)cc1)N1CCN(CCOc2ccccc2)CC1
  -18 | 4207 | 3.4 | 17 | 8 | 13 | nt
CC(C)CCNC(=O)c1onc(CSc2ccccc2)c1C(=O)NCCC(C)C
  -2 | 4141 | -3.6 | 16 | 8 | -35 | -4
CCOc1ccccc1CNC(=O)CCc1cn(C)c2ccccc12
  -3 | 3463 | 0.4 | 3 | 11 | -4 | -5
Cc1c(NC(=O)/C(=C/c2cccs2)c2cccs2)c(=O)n(-c2ccccc2)n1C
  -17 | 2160 | 0.3 | -3 | -4 | 11 | -12
O=C(CSC1=NC(=O)C(Cc2ccccc2)C(=O)N1)Nc1ncc(Br)cc1Br (configuration not stated)
  -14 | 4470 | 3.0 | 1 | 8 | -2 | -2
COc1ccc(NC(=O)CN(C)S(=O)(=O)c2ccc3c(c2)NC(=O)CS3)cc1
  -3 | 4090 | -0.3 | -10 | -6 | 1 | 8
Cc1noc(C)c1S(=O)(=O)NCCc1ccc(S(N)(=O)=O)cc1
  -7 | 4194 | 1.7 | nt | nt | 6 | -2
CCSc1nnc2c(n1)OC1(CCCC1)Nc1ccccc1-2
  -43 | 5585 | 3.5 | -9 | -5 | -15 | -3
CCn1cc([N+](=O)[O-])c(C(=O)N2N=C(c3ccc4ccccc4c3)CC2c2ccccc2O)n1 (configuration not stated)
  -11 | 3202 | -10 | nt | nt | 8 | 12

Laid out differently: entries from further up.
smiles,PrP UTR inh,Bead autofluor,RN4220 kill,Mtb hypoxia rep,Mtb hypoxia rep growth,ugtP null kill,BJeLR viability
O=S(=O)(c1ccc(F)cc1)N1CCN(CCOc2ccccc2)CC1,-18,4207,3.4,17,8,13,nt
CCSc1nnc2c(n1)OC1(CCCC1)Nc1ccccc1-2,-43,5585,3.5,-9,-5,-15,-3

Compound activity (PubChem)

Compounds were not picked by outcome. Share with any hit: about 4%.
